Beta apoptosis: inhibitors of cytokine-induced beta cell apoptosis, primary screen, luminescence; INS-1E cytokine-induced death, ATP luminescence, 48 h; percent of positive-control rescue, neutral wells zero; protection from apoptosis, % (test concentration not listed); 0.8% of 300,000 active;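 active = all replicates at 75% or more, or half of them and the mean; inconclusive = half reach 75% but not the mean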;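 also: 0% = cytokine-treated negative control wells and 100% = positive control rescue; higher means more ATP so stronger rescue from cytokine killing; wells of about 40 µL received 100 nL stock; the first replicate is given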
Calb FLC: C. albicans growth inhibition with fluconazole, primary screen, CaCi-2 strain, Alamar Blue fluorescence. 0.57% of 300,000 active. C. albicans CaCi-2 (fluconazole-resistant clinical isolate) + fluconazole, 48 h. growth inhibition, % (test concentration not listed);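 active = most replicates above 75%; inconclusive = exactly half above 75%; inactive = most below 75%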;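 also: all wells also contain fluconazole at 8 µg/ml as a sub-toxic cotreatment; 0% = median of DMSO wells and 100% = median of geldanamycin control wells; wells of about 8 µL received 7.5 nL stock; the first replicate is given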
RanGTP-Impb inh: inhibitors of RanGTP-importin-beta interaction, primary screen, biochemical, FRET, CFP-Ran, YFP-importin-beta, homogeneous; cell-free CFP-Ran/YFP-importin-beta FRET ratio; AID 2216, 2009; inhibition, % (no concentration beside the values); 1.1% of 300,000 active;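 active = most replicates above 15%; inconclusive = exactly half above 15%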;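 also: 0% = DMSO wells and 100% = Ran loaded with GDP instead of GTP; wells of about 40 µL received 100 nL stock; the first replicate is given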
T cruzi repl: inhibitors of intracellular T. cruzi growth, primary screen, luminescence, NIH3T3 host cells. T. cruzi beta-gal in NIH3T3, 90 h. inhibition, % (test concentration not listed). 1.4% of 300,000 active. AID 1885, 2009;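 active = mean inhibition across valid replicates above about 55%, limit read from the data; inconclusive = mean below that limit but half or more replicates reach it; inactive = mean below it, under half of replicates reach it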;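 also: signal also drops with host cell toxicity which is not excluded here; 0% = plate median of DMSO wells and 100% = zero luminescence signal; higher percent means less beta-gal luminescence so fewer parasites; stock transfer was 50 nL into about 50 µL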
A1 inh: caspase 3/7 activation in MEF A1-2A-BIM cells, primary screen, A1 inhibitor project, cell-based, luminescence, HTS | Caspase-Glo 3/7 luminescence, 3 h; percent of clofoctol response, vehicle zero | caspase activation, % (no concentration beside the values) | 0.066% of 330,000 active | AID 2462, 2010;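 active = over half of replicate activation scores above 10%, or exactly half above 10 with the replicate mean above 10; inconclusive = replicate mean below 10 yet half the replicates above 10; inactive = over half of replicates below 10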;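 also: wells of about 30 µL received 50 nL stock; many hits fall short of the cut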
Vif TR-FRET: inhibitors of Vif binding to APOBEC3G peptide, primary screen, biochemical, TR-FRET, GST-Vif 1-94, biotin-A3G peptide, dose response retest (AID 1117319); Virion infectivity factor (Human immunodeficiency virus type 1 group M subtype B (isolate …; 0.57% of 260,000 active; inhibition, %, or IC50 in µM where a hit was titrated; TR-FRET GST-Vif / biotin-A3G peptide binding; higher % means a stronger effect; test concentration not given here; strong numbers were not always called active;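 active = above the screen mean plus three standard deviations and confirmed in dose response; inconclusive = results disagree or hit not tested in dose response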;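 also: Vif residues 1-94 fused to GST binding biotinylated APOBEC3G peptide 110-148; 0% = full assay without inhibitor and 100% = GST in place of GST-Vif; retest series ran down from 100 µM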
AF4-AF9 inh: inhibitors of AF4 peptide binding to AF9, primary screen, biochemical, AlphaScreen, biotin-AF4 peptide, FLAG-AF9, single point. inhibition, % at 10 µM. 0.47% of 350,000 active;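 active = every replicate reaching a set inhibition limit, whatever the replicate mean, cut at about 25% in these data; inconclusive = mean inhibition reaches that limit but some replicates miss it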;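 also: 0% = plate neutral control median and 100% = total signal loss; the record names both 10 and 1 µM as test concentration; the first replicate is given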
Target sequence (P42568 whole entry, looked up): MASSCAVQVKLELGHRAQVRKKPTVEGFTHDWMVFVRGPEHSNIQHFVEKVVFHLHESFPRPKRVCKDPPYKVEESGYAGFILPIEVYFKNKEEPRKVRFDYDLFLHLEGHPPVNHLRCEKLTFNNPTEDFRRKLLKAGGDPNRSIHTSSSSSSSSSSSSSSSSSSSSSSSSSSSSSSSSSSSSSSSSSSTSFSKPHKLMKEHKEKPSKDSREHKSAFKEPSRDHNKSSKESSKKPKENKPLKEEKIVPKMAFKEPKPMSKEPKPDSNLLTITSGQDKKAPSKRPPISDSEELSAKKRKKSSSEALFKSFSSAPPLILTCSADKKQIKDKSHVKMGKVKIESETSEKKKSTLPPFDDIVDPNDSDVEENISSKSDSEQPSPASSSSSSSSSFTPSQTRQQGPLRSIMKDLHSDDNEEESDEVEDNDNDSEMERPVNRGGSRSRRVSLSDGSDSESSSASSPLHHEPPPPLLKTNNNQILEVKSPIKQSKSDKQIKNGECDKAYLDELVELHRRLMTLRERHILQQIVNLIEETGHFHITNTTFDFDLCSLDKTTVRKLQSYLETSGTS
Ecoli rRNA inh: reduced GFP signal of wild-type E. coli, primary screen, bacterial rRNA inhibitor project, GFP/RFP fluorescence, OD600, single point | E. coli WT GFP vs humanized-ribosome RFP mutants, 24 h; stronger effect = lower value; DMSO median 0, no signal -100 | 1.6% of 350,000 active | GFP signal change (wild-type ribosome), % (concentration not given with the values);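 active = significant combined selectivity score with lowered wild-type GFP, culture density cut under 30%, mutant RFP and density less affected; inactive = any of these conditions unmet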; also: one replicate is shown; some compounds called inactive have numbers as strong as hits
Ecoli rRNA inh OD600: further read-out of Ecoli rRNA inh, marked with its call; OD600 change, %; measured here: OD600 growth;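 optical density of the mix in the first replicate; 0 = DMSO median and -100 = no signal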
Ecoli rRNA inh RFP: also measured in Ecoli rRNA inh; calls as there; RFP signal change, %; measured here: RFP humanized mutant strains;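 first replicate; 0 = DMSO median and -100 = no signal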
Active calls of the source: *; ? = inconclusive; nt = no result given. An excerpt (hit frequency here may not be typical).

SMILES	Beta apoptosis	Calb FLC	RanGTP-Impb inh	T cruzi repl	A1 inh	Vif TR-FRET	AF4-AF9 inh	Ecoli rRNA inh	Ecoli rRNA inh OD600	Ecoli rRNA inh RFP
Cc1ccccc1C(=O)Nc1ccnn1C1CCN(CCCc2ccccc2)CC1	0	-50	-3.7	19	0.4	nt	1.7	2	5	3.4
COCCNC(=O)c1cccc2c1-c1ccccc1C2=O	-4	5	1.1	-3	0.1	-2%	1.1	3	11	0.4
Cc1nn(-c2ccc(C(=O)O)cc2)c2c1C(=O)CC(C)(C)C2	-5	2	6.0	-6	-0.3	-6%	2.0	9	8	2.3
COc1ccc(-c2csc(N3CCC(c4ccccc4)C3)n2)cc1 (stereo unspecified)	-7	0	?	13	-0.6	3%	nt	nt	nt	nt
Cc1cc(NC(=O)c2ccc3nc(-c4ccccc4)c(-c4ccccc4)nc3c2)no1	15	0	3.0	6	1.6	3%	nt	nt	nt	nt
CCN(CC)S(=O)(=O)c1cccc(NC(=O)c2ccc(C#N)cc2)c1	-8	10	4.4	-17	-0.3	-5%	-0.7	-12	-3	0.6
Cc1cc(-c2nnc(CCC(=O)N3CCN(Cc4cccnc4)CC3)o2)c(C)o1	-1	3	0.7	-15	-0.1	0%	0.8	15	18	0.1
COc1ccc(-c2noc(-c3ccccc3F)n2)cc1	5	-2	-3.2	-3	-6.7	0%	-44	0	6	-3.4
Cc1ccc(S(=O)(=O)N2CCN(C3CC(=O)N(c4ccc(F)cc4)C3=O)CC2)cc1C (stereo unspecified)	-7	nt	nt	nt	0.6	nt	1.2	-5	-2	4.3
Cc1cccc(OCc2nnc(SCc3cc(=O)n4cc(Br)ccc4n3)o2)c1	-4	-2	-0.5	12	-0.1	-3%	nt	nt	nt	nt
O=C(CSc1nc2c(c(=O)[nH]1)CN(Cc1ccc(F)cc1)CC2)Nc1ccc(F)cc1	2	-6	?	-12	-0.6	-12%	-6.6	1	7	1.3
Nc1nc(CCl)nc(Nc2cccc3ccccc23)n1	-6	5	2.4	70*	2.3	5%	0.9	-3	2	-1.0
COc1ccc(-c2cc(C(=O)Nc3nc4c(C)cccc4s3)c3ccccc3n2)cc1OC	nt	3	2.5	44	nt	-3%	nt	nt	nt	nt
CCOC(=O)/C=C/[C@H]1CC(c2ccccc2)(c2ccccc2)CO1	1	nt	nt	nt	1.4	nt	-7.7	-3	-6	-14
Cc1ccc2c(Cl)c(C(=O)Nc3cc(C)on3)sc2c1	-1	-8	-3.7	2	-3.0	-9%	nt	nt	nt	nt
C/C(Cn1nnc2ccccc21)=N\OC(=O)c1cc(F)c(F)cc1Cl	-6	-10	?	-7	0.0	?	-6.5	2	-1	1.0
CCN(C(=O)Cc1c(C(=O)O)n(C)c2ccccc12)c1cccc(C)c1	-3	28	2.4	-1	0.8	nt	-4.3	-1	-2	0.8
O=C(Nc1ccc(Oc2ncnc3cc(Cl)ccc23)nc1)c1ccc(F)cc1	-5	4	-1.9	nt	?	-4%	nt	nt	nt	nt
O=C(CCn1nc(-c2ccc(Cl)cc2)c2ccccc2c1=O)NCCN1CCOCC1	-7	-17	?	-1	-0.8	-7%	nt	nt	nt	nt
NC(=O)c1ccc(-c2noc(-c3ccccc3F)n2)cc1	-2	nt	nt	nt	-11	nt	-2.4	7	4	2.0
CCN(CC)S(=O)(=O)c1ccc2[nH]cc(C(=O)NCCN3CCCCCC3)c(=O)c2c1	-4	4	2.2	2	-0.1	-3%	nt	nt	nt	nt
O=C(CN(Cc1ccco1)C(=O)c1cc(=O)[nH]c2ccccc12)Nc1ccccc1Br	1	13	3.2	-1	1.9	13%	nt	nt	nt	nt
CCOC(=O)C1(Cc2ccccc2Cl)CCN(S(=O)(=O)N(C)C)CC1	0	5	4.5	-2	1.5	31%	0.0	-31	-48	-2.9
CCOc1ccc(N2C(=O)CC(N(CCc3ccc(OC)c(OC)c3)C(=S)Nc3ccccc3)C2=O)cc1 (stereo unspecified)	nt	25	4.2	9	0.3	0%	-68	8	14	1.2
O=C(Nc1cccc(Cl)c1)c1cc(F)cc2c1OCOC2	nt	-10	-2.4	5	0.3	-21%	-2.6	28	6	1.4

As a short view, some entries already given.
SMILES	Beta apoptosis	Calb FLC	RanGTP-Impb inh	T cruzi repl	A1 inh	Vif TR-FRET	AF4-AF9 inh	Ecoli rRNA inh	Ecoli rRNA inh OD600	Ecoli rRNA inh RFP
Cc1cc(NC(=O)c2ccc3nc(-c4ccccc4)c(-c4ccccc4)nc3c2)no1	15	0	3.0	6	1.6	3%	nt	nt	nt	nt
CCN(CC)S(=O)(=O)c1cccc(NC(=O)c2ccc(C#N)cc2)c1	-8	10	4.4	-17	-0.3	-5%	-0.7	-12	-3	0.6
Cc1cc(-c2nnc(CCC(=O)N3CCN(Cc4cccnc4)CC3)o2)c(C)o1	-1	3	0.7	-15	-0.1	0%	0.8	15	18	0.1
COc1ccc(-c2noc(-c3ccccc3F)n2)cc1	5	-2	-3.2	-3	-6.7	0%	-44	0	6	-3.4
Cc1ccc(S(=O)(=O)N2CCN(C3CC(=O)N(c4ccc(F)cc4)C3=O)CC2)cc1C (stereo unspecified)	-7	nt	nt	nt	0.6	nt	1.2	-5	-2	4.3
Cc1cccc(OCc2nnc(SCc3cc(=O)n4cc(Br)ccc4n3)o2)c1	-4	-2	-0.5	12	-0.1	-3%	nt	nt	nt	nt
O=C(CSc1nc2c(c(=O)[nH]1)CN(Cc1ccc(F)cc1)CC2)Nc1ccc(F)cc1	2	-6	?	-12	-0.6	-12%	-6.6	1	7	1.3

Carrying on.
SMILES	Beta apoptosis	Calb FLC	RanGTP-Impb inh	T cruzi repl	A1 inh	Vif TR-FRET	AF4-AF9 inh	Ecoli rRNA inh	Ecoli rRNA inh OD600	Ecoli rRNA inh RFP
CCN(CC)CCn1c2c(c(SCC(=O)Nc3cc(C)on3)nc1=O)CCCC2	-7	-2	2.7	26	-0.5	-2%	0.3	7	5	2.4
Cn1ncc(Br)c1C(=O)OCC(=O)Nc1nc(-c2ccccc2)cs1	-1	-25	5.4	9	-2.0	4%	nt	nt	nt	nt
NNC(=O)c1cccn(Cc2ccc(Cl)cc2Cl)c1=O	5	12	0.5	7	-1.6	0%	-0.6	-15	-9	-2.9
CC(=O)Nc1ccc(S(=O)(=O)Oc2ccccc2N2C(=O)C3C4CCC(C4)C3C2=O)cc1 (stereo unspecified)	-7	-5	5.9	15	0.7	nt	-4.0	2	0	-0.3
Cc1noc(C)c1C(=O)N1CCN(Cc2ccccc2)CC1	-10	-4	4.3	-5	-0.1	?	nt	nt	nt	nt
CCC(Sc1nnnn1-c1ccccc1)C(=O)Nc1nc2ccccc2s1 (stereo unspecified)	-6	-1	-1.1	15	-0.3	12%	nt	nt	nt	nt
COC(=O)c1c(N2C(=O)[C@H]3[C@@H](C2=O)[C@]2(C(=O)Nc4c(C)cccc42)N2CCC[C@@H]32)sc(C)c1C	-1	1	-4.4	-5	0.2	5%	nt	nt	nt	nt
S=C(NCCc1ccccc1)N1CCN(Cc2ccccc2)CC1	0	?	-0.4	16	-1.4	?	3.5	-5	5	-3.9
Cc1ccc(S(=O)(=O)c2nc(S(=O)(=O)c3ccccc3)sc2N2CCN(CCO)CC2)cc1	nt	2	0.9	19	nt	-2%	3.2	-4	-21	1.1
CC1CCc2[nH]c3ccc(C(=O)Nc4ccc(C(=O)N(C)C)cc4)cc3c2C1 (stereo unspecified)	4	2	12	8	0.1	nt	1.5	6	5	0.1
CCOC(=O)C(C)Sc1ncnc2c1nnn2-c1ccc(F)cc1 (stereo unspecified)	-1	-14	9.9	-3	-0.4	1%	nt	nt	nt	nt
CC(=O)Nc1ccc2sccc2c1	5	-16	0.3	-12	-1.0	nt	-0.1	-1	10	-3.1
O=c1[nH]nc(SCc2ccccc2Cl)n1-c1ccc2c(c1)OCCO2	-15	?	3.7	7	-1.7	0%	-2.3	18	12	0.4
O=C(NC1CCC1)C1CCC(=O)N(Cc2ccccc2F)C1 (stereo unspecified)	0	3	-1.5	17	2.0	nt	5.0	4	10	-3.1
Cc1cc(C(=O)COC(=O)Cn2cnc3c2c(=O)n(C)c(=O)n3C)c(C)n1C	-3	5	-1.1	-9	0.1	9%	nt	nt	nt	nt
COc1ccc(CNC(=O)CN2CCC(NC(=O)c3ccc(OC)cc3)CC2)cc1	nt	2	?	-2	nt	nt	-1.1	2	10	-1.7
CCOC(=O)c1ccc(N2Cc3ccccc3C2)cc1O	1	4	-0.5	-4	-2.0	4%	-6.5	-2	-20	1.5
CCCSc1nc2cc(S(=O)(=O)N3CCOCC3)ccc2n1CC	-7	7	?	13	0.7	nt	-0.1	-8	-5	1.3
Cc1cccc(NC(=O)CCC(=O)Nc2nnc(C3CCCCC3)s2)c1	0	12	2.3	-24	0.1	11%	-9.7	4	6	-2.1
O=C(CSc1nc(O)cc(=O)[nH]1)N1c2ccccc2Sc2ccccc21	7	-1	-1.8	41	-0.6	7%	9.0	-1	-5	0.6
O=C(CCCn1c(=S)[nH]c2ccccc2c1=O)N1CCCCC1	-2	7	1.1	-6	0.8	2%	nt	nt	nt	nt
CC(C#N)N1CCN(S(=O)(=O)c2ccc3c(c2)CCC3)CC1 (stereo unspecified)	0	nt	nt	nt	-0.4	-7%	-8.2	0	-9	-0.2
O=C(CN1CCC(n2nnc3cc(F)ccc32)CC1)NCCc1ccccc1	-2	-6	0.6	-10	2.6	-1%	nt	nt	nt	nt
COc1ccc(OC)c(S(=O)(=O)N2CCCC(C(=O)N3CCCCCC3)C2)c1 (stereo unspecified)	4	-3	-0.3	13	-0.8	nt	-9.1	-8	-4	0.3
O=C(O)CP(=O)(O)O	-5	nt	-1.2	-15	0.1	nt	1.2	0	2	0.4
CCOC(=O)C1=C(O)C(=O)N(c2ccc(S(N)(=O)=O)cc2)C1c1cccc([N+](=O)[O-])c1 (stereo unspecified)	2	2	-0.2	-2	0.5	nt	-0.2	10	7	1.6
Cn1c(=O)cc(OCCCC(=O)N2CCCCC2)c2ccccc21	-12	-2	2.9	7	0.2	?	nt	nt	nt	nt
Cc1ccc(S(=O)(=O)N2CCCCC2)cc1NC(=O)CNC(C)c1ccc(Cl)c(Cl)c1 (stereo unspecified)	0	nt	nt	nt	-0.6	4%	-4.7	1	-1	7.9
Cc1ccsc1/C=N/NC(=O)c1cccnc1	7	4	9.9	-14	-0.5	1%	2.9	13	7	2.2
Cc1ccc(S(=O)(=O)N2CCOC2CNC(=O)C(=O)NCCN(C)C)cc1 (stereo unspecified)	-7	-1	-5.3	-4	0.1	0%	-0.4	8	7	0.0

Source: PubChem (several laboratories)
